Screening data deposited in PubChem by Broad Institute.
PD-1 reverse act = activators reversing PD-1 mediated T-cell inhibition. primary human CD4 T cells, PD-L1 beads, CellTiter-Glo 96 h. activation, % (test concentration not listed). 29,000 tested, under 10 active;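 active means replicate mean of 50% or more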;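 further: 0% = median vehicle wells and 100% = positive control; 100 nL library stock added to about 50 µL; numbers are from one replicate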
YB-1 expression = YB-1 expression inhibition. AID 434959. 30,000 compounds, 0.37% hits. U2OS, qRT-PCR YB-1 vs CDIP delta delta Cp, 16 h; hits give high values; zero = DMSO, each unit about twofold. delta delta Cp (YB-1 minus CDIP) (concentration not given with the values);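 active means delta delta Cp rounded down to an integer at or above 3, about 3 SD of DMSO wells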;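 further: higher means less YB-1 transcript or more CDIP transcript relative to DMSO; stock transfer was 100 nL into about 100 µL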
MITF inh = inhibitors of MITF; TRPM1 promoter luciferase, luminescence, 24 h; 37,000 compounds, 0.28% hits; inhibition, % (no concentration beside the values);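 active means most replicates at 85% or more, or half of them and the mean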;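 further: human melanocyte line stably carrying TRPM1 promoter luciferase reporter; 0% = vehicle wells and 100% = a positive control; the first replicate is given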
Hedgehog inh = blocks Sonic Hedgehog signaling. 22,000 compounds, 2.1% hits. Shh-LIGHT2 Gli-luciferase reporter, 30 h. inhibition, % (concentration not given with the values);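 active means replicate mean of 65% or more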;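 further: pathway switched on by Shh-conditioned medium diluted 1 in 25 in low serum; 100 nL library stock added to about 40 µL; 0% = median of neutral wells and 100% = positive control level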
The depositor's hits bear a star; . = not tested or not shown. Not all compounds are listed; count on the stated rates, not on these rows.

Results follow in this order: PD-1 reverse act | YB-1 expression | MITF inh | Hedgehog inh
COc1ccc(NC(=O)Nc2ccc3c(c2)C(=O)N([C@@H](C)CO)C[C@H](C)[C@@H](CN(C)Cc2ccccc2)O3)cc1
 : 1.4 | 0.12 | -31 | 34
C[C@H]1CN([C@@H](C)CO)C(=O)c2cccc(N(C)C)c2O[C@H]1CN(C)C
 : 2.2 | 0.76 | 4 | -22
C[C@@H]1CN([C@H](C)CO)C(=O)c2cc(NC(=O)CCC(F)(F)F)ccc2O[C@H]1CN(C)Cc1ccc2c(c1)OCO2
 : 0.9 | 0.0091 | 0 | .
C[C@@H]1CN([C@H](C)CO)C(=O)c2cc(NC(=O)Nc3ccccc3)ccc2O[C@@H]1CN(C)Cc1ccc(Cl)c(Cl)c1
 : 0.5 | 0.11 | 34 | .
COC(=O)c1cc(OC)c(OC)cc1NC(=O)COc1ccc(C(C)(C)C)cc1Br
 : -0.7 | . | 26 | .
Cc1ccc(-c2csc3nnc(SCC(=O)Nc4nsc(-c5ccccc5)n4)n23)cc1
 : -1.7 | . | 1 | .
COc1ccc(S(=O)(=O)Nc2ccc3c(c2)C(=O)N([C@@H](C)CO)C[C@H](C)[C@@H](CN(C)C(=O)Nc2c(C)noc2C)O3)cc1
 : 0.9 | -0.29 | -1 | -8
O=C(c1cccc2ccccc12)N1CCc2ccccc21
 : -1.6 | 0.15 | 55 | 54
Cc1ccc(S(=O)(=O)N(C)C[C@H]2Oc3ccc(NC(=O)Nc4cccc5ccccc45)cc3C(=O)N([C@@H](C)CO)C[C@@H]2C)cc1
 : -1.6 | -0.13 | 3 | .
COc1ccc(S(=O)(=O)N(C)CC(=O)NC2CCCC2)cc1Cl
 : -2.2 | . | -11 | .
CC1OC(OC2C(OC3C(O[C@H]4CC[C@@]5(C)C(CC[C@]6(C)C5CC=C5C7CC(C)(C)CC(O)[C@]7(C)CC[C@]56C)C4(C)C)OC(C(=O)O)C(O)C3O)OCC(O)C2O)C(O)C(O)C1O (some centres not stated)
 : -0.6 | 0.22 | -4 | 13
Cc1noc(C)c1NC(=O)Nc1cccc2c1O[C@@H](CN(C)Cc1ccncc1)[C@@H](C)CN([C@H](C)CO)C2=O
 : 0.3 | 0.16 | 0 | 7
CCn1nc(C)c(NC(=S)NCc2ccco2)c1C
 : 3.2 | . | -19 | .
CNC[C@H]1Oc2ccc(NC(=O)c3ccncc3)cc2C(=O)N([C@H](C)CO)C[C@H]1C
 : -0.3 | -0.072 | 0 | -10
CCOC(=O)c1c(CSc2nc(C)ccc2C#N)oc2ccc(OC(C)=O)cc12
 : -2.3 | -0.55 | 66 | 100*

Other results follow:
Results follow in this order: PD-1 reverse act | YB-1 expression | MITF inh | Hedgehog inh
COc1ccc(NC(=O)Nc2cccc3c2O[C@@H](CN(C)Cc2ccc(-c4ccccc4)cc2)[C@H](C)CN([C@H](C)CO)C3=O)cc1
 : 0.1 | 0.062 | 3 | -7
C[C@H]1CN([C@@H](C)CO)C(=O)c2cccc(NC(=O)C3CCOCC3)c2O[C@@H]1CN(C)C(=O)Nc1ccc(C(F)(F)F)cc1
 : . | 0.15 | -11 | 30
COc1ccc(NC(=O)Nc2ccc3c(c2)CC(=O)N([C@H](C)CO)C[C@@H](C)[C@H](CN(C)Cc2ccc(Oc4ccccc4)cc2)O3)cc1
 : 0.5 | -0.0031 | -1 | 17
O=C(c1nsnc1-c1ccccc1O)N1CCCC1
 : 0.1 | 0.43 | -10 | .
Cc1noc(C)c1S(=O)(=O)Nc1ccc2c(c1)C(=O)N([C@H](C)CO)C[C@H](C)[C@H](CN(C)S(C)(=O)=O)O2
 : -0.3 | 0.11 | 0 | -6
C[C@@H]1CN([C@@H](C)CO)C(=O)Cc2cc(NC(=O)C3CC3)ccc2O[C@@H]1CN(C)Cc1ccc(C(=O)O)cc1
 : -0.5 | 0.17 | -8 | 28
O=C(CSc1ncccn1)Nc1cc(Cl)cc(Cl)c1
 : -0.8 | . | -11 | .
COc1cc(OC)c2c(O)c3c(c(-c4c5c(c(O)c6c(OC)cc(OC)cc46)CO[C@@H](C)[C@H]5O)c2c1)[C@H](O)[C@H](C)OC3
 : . | 0.55 | . | 1
Cc1ccc(C(=O)CSc2nnc(-c3cc(C(C)(C)C)nn3Cc3cccc(C)c3)o2)cc1
 : 4.4 | 0.011 | 13 | -14
Cc1ccc(NC(=O)COc2ccc3c(=O)c(-c4ccccc4Cl)coc3c2)cc1
 : -0.4 | . | -4 | .
CS(=O)(=O)N(CC(=O)Nc1cc(Cl)ccc1Cl)c1cc(Cl)c(Cl)cc1Cl
 : 0.2 | . | 1 | .
Cc1ccc(S(=O)(=O)Nc2cccc3c2O[C@H](CN(C)Cc2ccncc2)[C@@H](C)CN([C@H](C)CO)C3=O)cc1
 : -0.1 | 0.21 | -2 | -36
Cc1cc(OCCCC(=O)Nc2sc3c(c2C#N)CCCC3)cc(C)c1Cl
 : -1.2 | . | -1 | .
C[C@H]1CN([C@@H](C)CO)C(=O)Cc2cc(NC(=O)Cc3cn(C)c4ccccc34)ccc2O[C@@H]1CN(C)S(=O)(=O)c1ccccc1
 : . | -0.15 | 17 | 3
CC1(C)OC(=O)C(=Cc2ccoc2)C(=O)O1
 : -0.8 | -0.13 | -7 | -13

The listing continues.
Results follow in this order: PD-1 reverse act | YB-1 expression | MITF inh | Hedgehog inh
Cc1ccc(S(=O)(=O)CCC(=O)Nc2ccc(Cl)cc2)cc1
 : 0.8 | . | 20 | .
Cc1noc(C)c1NC(=O)N(C)C[C@@H]1Oc2c(NS(=O)(=O)c3ccccc3)cccc2C(=O)N([C@H](C)CO)C[C@H]1C
 : 0.7 | -0.5 | -22 | 7
COc1ccccc1NC(=O)CSC1=NC(c2ccccc2)CC(=O)N1 (configuration not stated)
 : -1.9 | . | -12 | .
O=C(CSc1nc2ncccc2[nH]1)Nc1ccccc1Cl
 : -1.9 | . | -12 | .
c1ccc(-n2nnnc2CSc2nnnn2-c2ccccc2)cc1
 : 0.3 | . | -4 | .
C[C@H](CO)N1C[C@H](C)[C@H](CN(C)Cc2ccc(-c3ccccc3)cc2)Oc2c(NC(=O)Nc3ccc(F)cc3)cccc2C1=O
 : . | 0.062 | 1 | 11
O=C(CC(Sc1ccc(Br)cc1)C(=O)O)c1ccc(Cl)cc1 (configuration not stated)
 : -6.8 | -0.068 | 6 | 53
C[C@@H]1CN([C@H](C)CO)C(=O)c2cc(NC(=O)CCN3CCOCC3)ccc2O[C@H]1CN(C)Cc1ccncc1
 : 0.4 | 0.01 | -2 | -29
COC(=O)C1=C(C)NC(=O)CC1c1ccccc1C (configuration not stated)
 : 1.4 | -0.082 | -16 | 15
C[C@H]1CN([C@@H](C)CO)C(=O)Cc2cc(N(C)C)ccc2O[C@@H]1CN(C)C(=O)Nc1ccccc1
 : 0.8 | -0.29 | -1 | -11
C[C@@H]1CCCCO[C@@H](CN(C)Cc2ccncc2)[C@@H](C)CN([C@H](C)CO)C(=O)c2cc(NS(=O)(=O)c3cn(C)cn3)ccc2O1
 : 3.6 | 0.2 | -4 | 5
C[C@@H]1CN([C@@H](C)CO)C(=O)c2cc(NC(=O)Cn3cnnn3)ccc2O[C@H]1CN(C)S(C)(=O)=O
 : 0.9 | 0.23 | 4 | -17
COc1ccc(S(=O)(=O)Nc2ccc3c(c2)C(=O)N([C@H](C)CO)C[C@H](C)[C@@H](CN(C)S(=O)(=O)c2cccs2)O3)cc1
 : -1.0 | 0.12 | 1 | 29
C[C@@H]1CN([C@@H](C)CO)C(=O)Cc2cc(NS(=O)(=O)c3ccc(Cl)cc3)ccc2O[C@@H]1CN(C)Cc1ccc(C(=O)O)cc1
 : 1.4 | 0.2 | 4 | -4
Cc1ccc(S(=O)(=O)N(C)C[C@@H]2Oc3ccc(NS(=O)(=O)c4ccc(Cl)cc4)cc3CC(=O)N([C@H](C)CO)C[C@@H]2C)cc1
 : 0.2 | 0.2 | 20 | 9

Rewritten as labelled records: entries from further up
> CCn1nc(C)c(NC(=S)NCc2ccco2)c1C
  PD-1 reverse act: 3.2	YB-1 expression: .	MITF inh: -19	Hedgehog inh: .
> CNC[C@H]1Oc2ccc(NC(=O)c3ccncc3)cc2C(=O)N([C@H](C)CO)C[C@H]1C
  PD-1 reverse act: -0.3	YB-1 expression: -0.072	MITF inh: 0	Hedgehog inh: -10
> CCOC(=O)c1c(CSc2nc(C)ccc2C#N)oc2ccc(OC(C)=O)cc12
  PD-1 reverse act: -2.3	YB-1 expression: -0.55	MITF inh: 66	Hedgehog inh: 100*
> COc1ccc(NC(=O)Nc2cccc3c2O[C@@H](CN(C)Cc2ccc(-c4ccccc4)cc2)[C@H](C)CN([C@H](C)CO)C3=O)cc1
  PD-1 reverse act: 0.1	YB-1 expression: 0.062	MITF inh: 3	Hedgehog inh: -7

Further records
SMILES	PD-1 reverse act	YB-1 expression	MITF inh	Hedgehog inh
COC(=O)c1ccccc1NC(=O)c1nc2nc(C)cc(C(F)F)n2n1	0.9	.	32	.
C[C@@H]1CCCCO[C@H](CN(C)Cc2ccncc2)[C@@H](C)CN([C@H](C)CO)C(=O)c2cc(NC(=O)CCC(F)(F)F)ccc2O1	.	0.036	0	26
COc1cccc(OC)c1C(=O)Nc1ccc(C(=O)NCC2CCCO2)cc1 (configuration not stated)	2.9	.	-2	.
COc1ccc(CN(C)C[C@@H]2Oc3c(NC(=O)C4CCCCC4)cccc3C(=O)N([C@@H](C)CO)C[C@@H]2C)cc1	1.8	-0.046	-8	-14
C[C@H](CO)N1C[C@H](C)[C@@H](CN(C)Cc2ccc(Cl)c(Cl)c2)Oc2ccc(NC(=O)Cc3ccccc3)cc2C1=O	-5.1	-0.38	17	.
COc1cc(C2Oc3c(O)ccc([C@@H]4Oc5cc(O)cc(O)c5C(=O)[C@H]4O)c3C2CO)ccc1O (some centres not stated)	.	0.25	.	-7
Cc1cc(-c2ccccc2)nc(SCC(=O)Nc2ccc(I)cc2)n1	0.2	.	3	.
N#CC1=C(N)Oc2c(sc3ccccc23)C1c1ccccc1OC(=O)c1ccccc1Cl (configuration not stated)	-1.3	-0.27	33	44
COc1ccc(-n2c(SCC(=O)c3ccccc3)nnc2-c2ccncc2)cc1	2.1	.	-20	.
CC(C)NC(=O)Nc1ccc2c(c1)C(=O)N([C@H](C)CO)C[C@@H](C)[C@@H](CN(C)Cc1ccc(Oc3ccccc3)cc1)O2	-1.8	.	1	.
CCN1C(=O)c2cccc3c(NC(=S)NC(=O)c4ccccc4)ccc1c23	0.5	0.61	8	86*
COc1ccc(S(=O)(=O)N(C)C[C@@H]2Oc3ccc(NS(=O)(=O)c4ccc(Cl)cc4)cc3C(=O)N([C@@H](C)CO)C[C@@H]2C)cc1	-0.5	-0.27	2	-1

Remaining list, next part:
SMILES	PD-1 reverse act	YB-1 expression	MITF inh	Hedgehog inh
CN(C)N1C(=O)c2cccc3cccc(c23)C1=O	-0.2	-0.22	-6	-28
C[C@@H]1CN([C@@H](C)CO)C(=O)c2cc(NC(=O)Nc3ccc(C(F)(F)F)cc3)ccc2O[C@H]1CN(C)Cc1ccc(C(F)(F)F)cc1	-12	0.45	10	.
COc1ccc(S(=O)(=O)N(C)CC(=O)NC2CCCCC2)cc1C	-0.8	.	-2	.
C[C@H](CO)N1C[C@H](C)[C@H](CN(C)C(=O)Nc2ccc(C(F)(F)F)cc2)Oc2ccc(NC(=O)NC3CCCCC3)cc2CC1=O	-2.0	0.15	-16	-8
Cc1cc([N+](=O)[O-])ccc1NC(=O)CSc1nnnn1-c1ccccc1	0.7	.	17	.
C[C@@H]1CN([C@@H](C)CO)C(=O)c2cccc(NS(=O)(=O)c3ccc(F)cc3)c2O[C@H]1CN(C)C(=O)NC1CCCCC1	0.7	-0.48	-1	-47
COc1ccc(S(=O)(=O)N(C)CC(=O)Nc2c(F)cccc2F)cc1	0.7	.	-5	.
COc1ccc(S(=O)(=O)Nc2cccc3c2O[C@@H](CN(C)Cc2ccccc2)[C@H](C)CN([C@@H](C)CO)C3=O)cc1	1.1	-0.16	-6	-6
Cc1ccc(N(C(C)C(N)=O)S(C)(=O)=O)cc1C (configuration not stated)	-0.5	.	0	.
Cc1c(N(C)CS(=O)(=O)O)c(=O)n(-c2ccccc2)n1C	.	-0.43	-3	-77
CCc1cc(C(=O)OC)c(NC(=O)CC2Nc3cccc4cccc(c34)NC2=O)s1 (configuration not stated)	-2.1	.	66	.
COc1ccc(CN(C)C[C@@H]2Oc3ccc(NC(=O)Nc4cccc5ccccc45)cc3C(=O)N([C@H](C)CO)C[C@H]2C)cc1	0.5	-0.23	9	8

Going on with the list.
SMILES	PD-1 reverse act	YB-1 expression	MITF inh	Hedgehog inh
C[C@@H]1CN([C@H](C)CO)C(=O)c2cccc(NC(=O)Nc3ccc4c(c3)OCO4)c2O[C@@H]1CN(C)C(=O)Nc1ccc2c(c1)OCO2	.	0.06	-6	-76
COc1ccc(NC(=O)Nc2ccc3c(c2)C(=O)N([C@H](C)CO)C[C@H](C)[C@H](CN(C)S(=O)(=O)c2cn(C)cn2)OCCCC[C@@H](C)O3)cc1	0.2	-0.13	2	-5
CCc1ccc[n+](OC(=O)N(CC)CC)c1	0.5	-0.37	5	.
C[C@@H]1CCCCO[C@H](CN(C)C(=O)NC2CCCCC2)[C@@H](C)CN([C@H](C)CO)C(=O)c2cc(NS(=O)(=O)c3ccc(F)cc3)ccc2O1	.	-0.31	0	21
COc1ccc(CN(C)C[C@@H]2Oc3c(NC(=O)c4ccncc4)cccc3C(=O)N([C@H](C)CO)C[C@H]2C)cc1	1.0	0.31	-5	0
